HSD17B inh: HSD17B dehydrogenase inhibition; Q99714; Potency, µM (highest dose often 57.1 µM), without a hit: at the top dose activity change, negative = inhibition, usual class: inhibitors; AID 893; 75,000 compounds, 7.6% hits; recombinant HSD17B10, NADH fluorescence kinetic; many of its hits are not listed in these tables; active means well fitted inhibition curve with a large enough effect; inconclusive means small, poorly fitted or top-dose-only effect; inactive means no such curve, though single readings can be large or run the other way;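 further: the protocol describes HADH2 (HSD17B10) and not the HSD17B4 of the title; nearly all actives have a fitted effect of over 70% in size; most hits overshoot -100% by far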
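His-tagged E. coli-expressed HADH2 at 20 nM in 100 mM Tris-HCl pH 9.0 with 0.01 % Tween-20, preincubated 15 min with compound at room temperature. Reaction with 1 mM NAD+ and 90 uM beta-hydroxybutyryl coenzyme A; NADH fluorescence (360/450 nm) read kinetically over 4 min, last minus first point.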
Numbers without * were called inactive; u = inconclusive; [ ] = another dose, or the depositor's remark. On the % scale 0 is the no-effect control and ±100 the full control effect; potency means the concentration at half of the fitted maximal effect.

structure,HSD17B inh
Cc1cc(NC(=O)C(C)(C)C)no1,8.0%
O=C(c1ccc(Br)o1)N1CCN(c2ccccc2F)CC1,5.0%
Cc1nc(N)sc1Cc1ccc2c(c1)OCO2,-5.2%
c1nc(NC2CCNCC2)c2cc(-c3ccoc3)ccc2n1,25.1µM*
C=CCc1ccccc1OCC(O)Cn1ccnc1C (centres undefined),12.6%
CSc1oc(-c2ccco2)nc1S(=O)(=O)c1ccc(Br)cc1,-29.3%
CC1(C)Cc2ccccc2-c2nnc(SCC(=O)N3CCN(c4ccccc4)CC3)n21,1.8%
CCC1=C2CC[C@H]3C(=O)N(CC)C(=O)[C@H]3[C@H]2[C@@]2(Cc3ccccc3)C(=O)N(Cc3ccccc3)C(=O)N2C1=O,-5.4%
Cc1noc(C)c1S(=O)(=O)N1CCC(C(=O)N(C)Cc2ccccc2)CC1,14.6%
COC(=O)c1[nH]c2cc(OC)ccc2c1NC(=O)CN1CCOCC1,u
O=C(O)CCCNCc1ccccc1F,4.5%
CCOC(=O)c1ccc(NC(=O)CN2CCc3ccccc3C2)cc1,u
CC[C@H]1C2=C3C(CC[C@H]4C(OCc5ccc(F)cc5C(F)(F)F)OC[C@](C)([C@@H]34)N(C(=O)OC(C)(C)C)C2)C(COC(C)=O)C1COC(C)=O (some centres undefined),0.9%
Cc1cccc(-c2nc(CSCC(=O)N3CCN(Cc4ccc5c(c4)OCO5)CC3)c(C)o2)c1,2.3%
COCCSc1nnc(NS(=O)(=O)Cc2ccccc2)s1,-7.5%
CC[N+](C)(C)Cc1ccccc1Br,3.7%
CN(C)CCN(Cc1ccccc1)c1ccccn1,1.6%
CN(CC(=O)NCc1cccc(F)c1)C(=O)c1ccco1,1.3%
CCOc1ccccc1NC(=O)c1ccc2nccnc2c1,-3.0%
Cc1ccc(N2CC(C(=O)NCc3ccccn3)CC2=O)cc1 (centres undefined),11.9%
COc1ccc(NC2CS(=O)(=O)CC2NCc2ccco2)cc1 (centres undefined),-2.1%
O=C(COc1nc2ccccc2nc1N1CCOCC1)N1CCc2ccccc21,9.7%
CCOC(=O)CNC(=O)c1cn(CC)c(=O)c2cc(OC)c(OC)cc12,-2.5%
Cc1cccc2cc(CN(Cc3ccco3)C(=O)c3cccs3)c(=O)[nH]c12,20µM*
O=C(CCC(=O)OCC(=O)c1ccccc1)NC1CCCCC1,-0.1%
Cc1ccc(-c2nc(-c3ccccc3)no2)c(Cl)c1,-8.8%
N#CC1=C(N)Oc2c(oc(CO)cc2=O)C1c1cccs1 (centres undefined),-23.0%
O=C(c1ccncc1)N1CCC2(CCCN(c3ccccc3)C2)CC1,7.8%
C=CCOC(=O)c1sc(NC(=O)c2ccco2)nc1C,-9.2%
OC(c1ccc2c(c1)OCO2)c1nccc2ccccc12 (centres undefined),2.5%
O=C(CCC1COc2ccccc2O1)N1CCCC1 (centres undefined),-9.4%
CN(C)C(=O)c1ccc(-c2ccc3ncnc(NCCN4CCOCC4)c3c2)cc1,u
CSCCOC(=O)C1=C(C)NC(=O)CC1c1ccccc1Cl (centres undefined),6.4%
c1ccc2c(c1)N1CCN=C1N2CCN1CCCCC1,1.9%
Oc1ccc(CNc2ccccc2)c2cccnc12,7.8%
CCCCC(=O)Nc1ccc2c(c1)nc(CCN1CCOCC1)n2C,-5.3%
CC1(C)CC(=O)c2c(nn(-c3ccccc3)c2N)C1,9.7%
CN(c1ccc(C(=O)Nc2ccccc2C(F)(F)F)cc1)S(C)(=O)=O,-15.9%
COc1ccc(NC(=O)c2c(NC(=O)CNCc3ccco3)sc3c2CCC3)c(OC)c1,u
O=S(=O)(CCN(CCS(=O)(=O)C(F)(F)F)CC1CCCO1)C(F)(F)F (centres undefined),1.5%
Fc1cc2ncn(Cc3ccccc3)c2cc1F,5.6%
CCOC(=O)c1cn(CC)c2cc(N3CCSCC3)c(F)cc2c1=O,u
Cc1ccc2c(Cl)cc(Cl)c(OCC(=O)NC(=O)NCc3ccco3)c2n1,-12.4%
N#Cc1cnc(SCC(=O)c2ccccc2)nc1N,u
COc1cc(OC)c2c(c1Cl)OC1(C2=O)C(O)=CC(=O)CC1C (centres undefined),3.1%
Cc1ccc(NC(=O)c2nnn(-c3cc(C)cc(C)c3)c2N)cc1,9.8%
CCCC(c1nnnn1C(C)(C)CC)N(Cc1ccco1)Cc1cc2ccc(OC)cc2[nH]c1=O (centres undefined),u
COc1ccc(C(=O)Nc2nnc(C(F)(F)F)s2)cc1,-0.3%
Cc1cc(C(=O)NCc2cccs2)cs1,2.6%
CCc1c2c(nc3c(C(C)C)cccc13)-c1cccc(=O)n1C2,25.1µM*
CCOC(=O)N1CCN(c2nc3c(c(=O)[nH]c(=O)n3C)n2Cc2ccccc2Cl)CC1,4.6%
O=C1c2ccccc2C(=O)N1CCCC(=O)N1CCc2ccccc21,-2.5%
CC1(C)[C@@H](CC(=O)O)CCC[C@@H]1CC(=O)O,4.8%[11.4 µM]
CCOC(=O)Cc1csc(Nc2c(C)n(C)n(-c3ccccc3)c2=O)n1,1.5%
CCCC(=O)N1CCN(c2ccc(NC(=O)c3ccc(Br)o3)cc2)CC1,19.4%
CCn1c(SCC(=O)Nc2cc(C)on2)nc2sc(C)c(C)c2c1=O,-11.5%
Cn1c(N)c(C(=O)CSc2ccc3c(c2)OCCO3)c(=O)n(C)c1=O,-2.4%
O/N=C(/CN(O)/C=C1/C=CC=N1)c1cccs1,-2.9%
COc1ccccc1NC(=O)CN1CCN(CC(=O)Nc2ccc(OCc3ccccc3)cc2)CC1,1.9%
Cc1cc(S(=O)(=O)NCCN2CCOCC2)c(C)s1,-0.4%

(more compounds)
structure,HSD17B inh
CCOC(=O)C1CCN(C(=O)Cn2cc3c(n2)CCC(C)C3)CC1 (centres undefined),3.8%
Cc1cc(-c2ccc(N3C(=O)CCC3=O)c(C)c2)ccc1N1C(=O)CCC1=O,6.5%
CCOC(=O)C(C(=O)Nc1ccccn1)C1CCCCC1 (centres undefined),-5.3%
CCC(CC)C(=O)Nc1cc(C)cc(C)c1,-0.4%
CCCn1nc(C(=O)Nc2cccc(C(=O)OC)c2)c2ccccc2c1=O,-11.4%
CCOC(=O)c1nnn(-c2nonc2N)c1CN(C)C1CCCCC1,2.4%
CCN(Cc1ccccc1)S(=O)(=O)c1ccc(C(=O)Nc2nnc(-c3ccccc3OC)o2)cc1,-25.8%
COc1ccc(CCNC(=O)c2ccc(NS(=O)(=O)c3c(C)noc3C)cc2)cc1OC,9.0%
COCc1cc(C)n(CC(=O)NC(C)c2ccccc2)c(=O)c1C#N (centres undefined),31.6µM*
O=C(NCC(=O)N(Cc1ccccc1)C(C(=O)NC1CCCC1)c1ccco1)c1ccco1 (centres undefined),-6.7%
O=C(O)CCCn1nc(C(F)(F)F)c2c1CCCCC2,9.0%
CC(=O)NC(Cc1ccccc1F)C(=O)NC1CCN(C(=O)c2cnccn2)CC1 (centres undefined),-13.6%

The listing continues.
SMILES	HSD17B inh
Cc1oc(-c2ccc(Cl)cc2)nc1CN1CCCC(C(=O)N2CCN(C(=O)c3ccco3)CC2)C1 (centres undefined)	4.4%
O=[N+]([O-])c1cccc(/C=N\Nc2ccc3ccccc3n2)c1O	-0.9%[11.4 µM]
Cc1cc(C)nc(N2CCN(c3nnnn3-c3ccccc3)CC2)n1	-3.0%
Cn1nc(C(=O)Nc2sccc2C(N)=O)ccc1=O	-10.4%
Nc1nc(SCC(=O)N2CCCc3ccccc32)[nH]c(=O)c1-c1ccccc1	6.7%
CCn1ncc(Br)c1C(=O)Nc1sc2c(c1C(=O)OC)CCC2	9.8%
COc1cccc(-c2cncnc2N(C)Cc2ccco2)c1	-4.0%
FC(F)(F)c1ccccc1-c1nc(NCc2cccnc2)c2ccccc2n1	-0.2%
CCOc1ccccc1Nc1nc2ccccc2[nH]1	-0.1%
COCCSc1ccccc1C(=O)Nc1nnc(C)s1	3.6%
COc1ccc(C2C3=C(CCCC3=O)Nc3nc4ccccc4n32)c(OC)c1OC (centres undefined)	2.51µM*
O=C(c1cccc(F)c1)N1CCC2(CC1)CN(C(c1ccccc1)c1ccccc1)C2	2.3%
COc1ccc(C)cc1Cn1c(S(C)(=O)=O)nc2ccccc21	-11.3%
CC1CCN(C(=O)COc2ccccc2F)CC1	4.1%
Cc1c(NC(=O)CN2c3cccc4cccc(c34)S2(=O)=O)c(=O)n(-c2ccccc2)n1C	u
CCCc1cc(=O)n2[nH]c(NCc3cccs3)nc2n1	3.8%
C=C(CC1([C@@H](NP(=O)(c2ccccc2)c2ccccc2)[C@H]2C[C@@H]2CCCC)CC1)c1cccc(OC)c1	-10.7%
O=[N+]([O-])c1ccc2cn[nH]c2c1	-3.9%
CCOc1ccccc1NC(=O)N1CCC(n2nnc3cc(C)ccc32)CC1	3.5%
Cc1c(-c2cccs2)[n+](=O)c2c(n1[O-])CCCCC2	-1.2%
Cn1c(=O)cc(OCCCC(=O)NCCCN2CCN(Cc3ccccc3)CC2)c2ccccc21	2.6%
CS(=O)(=O)N(CC(=O)NCCSCc1c(F)cccc1Cl)c1ccc2c(c1)OCO2	0.1%
CCOC(=O)CCc1c(C)n(CC)c2cc(-c3ccccc3OC)nn2c1=O	25.1µM*
CN1CCN(CC(O)COc2ccc(OCC(O)CN3CCN(C)CC3)cc2)CC1 (centres undefined)	9.5%
c1cn2cc(-c3ccc4c(c3)OCO4)nc2s1	-22.8%
CC1CN(C(=O)c2ccncc2)CC(C)O1 (centres undefined)	-2.7%
COc1ccc(CN2CCCC2C(=O)Nc2ccc(OC)c(OC)c2)cc1OC (centres undefined)	4.7%
NC(=O)C1CCN(C(=O)CCCCCn2c(=O)[nH]c3ccsc3c2=O)CC1	-5.3%
O=C(NC12CC3CC(CC(C3)C1)C2)c1cncc(O)c1	25.1µM*
Cc1ccn(S(=O)(=O)c2ccc(C(C)(C)C)cc2)n1	1.3%
COc1ccc(Cl)cc1NC(=O)CSc1nnc(-c2ccncc2)n1CC1CCCO1 (centres undefined)	6.8%
O=C(Nc1ccccc1-c1nnn(CC(=O)N2CCCc3ccccc32)n1)c1ccco1	31.6µM*
CSCC[C@H](NC(=O)OC(C)(C)C)c1nnc(SCc2cccc(F)c2)o1	-2.1%
COc1ccc2nc(NCCO)[nH]c2c1	-2.6%
COc1ccc(N2CCN(C(=O)CSc3nnc4n3C(C)(C)Cc3ccccc3-4)CC2)cc1	1.7%
Cc1ccc(S(=O)(=O)C2(C(=O)Nc3cccc(F)c3)CC2)cc1	3.5%
COC(=O)c1ccc(NC(=O)CCN2CCCCC2)cc1	-0.2%
C=CCOc1cccc(C2/C(=C(/O)c3ccc(F)cc3)C(=O)C(=O)N2CCN2CCOCC2)c1 (centres undefined)	-10.0%
COC(=O)C(C)n1cnc2c(nnn2Cc2ccc(Cl)cc2)c1=O (centres undefined)	2.0%
CC(C)(C)C(=O)[C@@H]1[C@@H]2C(=O)N(c3ccc4c(c3)OCCO4)C(=O)[C@@H]2C2c3ccccc3C=CN21 (some centres undefined)	u

4 entries from above, sorted by length of the SMILES, low to high.
SMILES	HSD17B inh
Cc1ccc(N2CC(C(=O)NCc3ccccn3)CC2=O)cc1 (centres undefined)	11.9%
CN1CCN(CC(O)COc2ccc(OCC(O)CN3CCN(C)CC3)cc2)CC1 (centres undefined)	9.5%
Cc1cccc2cc(CN(Cc3ccco3)C(=O)c3cccs3)c(=O)[nH]c12	20µM*
CS(=O)(=O)N(CC(=O)NCCSCc1c(F)cccc1Cl)c1ccc2c(c1)OCO2	0.1%

Another view of 4 compounds above.
> NC(=O)C1CCN(C(=O)CCCCCn2c(=O)[nH]c3ccsc3c2=O)CC1
  HSD17B inh = -5.3%

> O=C(NC12CC3CC(CC(C3)C1)C2)c1cncc(O)c1
  HSD17B inh = 25.1µM*

> Cc1ccn(S(=O)(=O)c2ccc(C(C)(C)C)cc2)n1
  HSD17B inh = 1.3%

> COc1ccc(Cl)cc1NC(=O)CSc1nnc(-c2ccncc2)n1CC1CCCO1 (centres undefined)
  HSD17B inh = 6.8%

Additional structures.
SMILES	HSD17B inh
CCSCCOC(=O)C1=C(C)NC2=C(C(=O)CCC2)C1c1coc2ccccc2c1=O (centres undefined)	1.5%
O=C(Nc1nccs1)c1ccc(COc2ccccc2Br)o1	-21.2%
O=C(/C=C/c1ccccc1)c1ccc(O)cc1	-0.2%
CCOC(=O)C1=C(C)NC(=O)C(C(N)=O)C12CCCCC2 (centres undefined)	9.6%
CCCC(=O)NC(C)c1nc2ccccc2n1C(C)C (centres undefined)	5.1%
CCOc1ccc(NC(=O)C(C)SC(N)=O)cc1 (centres undefined)	0.1%
CCSc1n[nH]c(=O)[nH]c1=O	8.9%
Cc1ccc2nc(-c3ccc4c(c3)OCCO4)cc(C(=O)O)c2c1	-16.7%
CCOC(=O)c1sc2nc(SCC#N)n(CCCN3CCCC3=O)c(=O)c2c1C	-8.3%
Nc1nc2c(c(=O)[nH]1)CN(c1ccc(S(N)(=O)=O)cc1)CN2	1.0%[11.4 µM]
CCc1nc(SCC(N)=O)c2c(=O)n(C)c(=O)n(C)c2n1	18.8%
COc1cc(OC)nc(NC(=O)C(C)C)n1	4.9%
O=C(CSc1nc2ccsc2c(=O)n1NC(=O)c1ccccc1)NCc1ccco1	u
COC(=O)c1ccccc1COn1c(=O)c(C)[n+]([O-])c2ccccc21	-22.7%
COc1ccccc1CN1CC[C@@]2(CCCN(C(=O)c3cnccn3)C2)C1	2.5%
Cc1ccc(Nc2nc(=O)c3cccnc3s2)cc1	3.9%
Cc1ccc(C2C(C#N)=C(N)Oc3n[nH]c(-c4cccs4)c32)s1 (centres undefined)	20µM*

Screens as filed in PubChem.

This is a subset (hit frequency here may not be typical).
